# Assay outcomes deposited in PubChem BioAssay by National Center for Advancing Translational Sciences (NCATS).
# ClpP mod – qHTS Assay for Activators of ClpP | ATP-dependent Clp protease proteolytic subunit (Bacillus subtilis (strain 168)), P80244 | Potency, µM (series often up to 57.5 µM), for the others: top-dose activity change, negative = active | purified B. subtilis ClpP, FRET peptide cleavage, 20 min | 340,000 compounds, 1.9% hits; active = well fitted falling curve with a large enough effect; inconclusive = small, poorly fitted or top-dose-only effect; inactive = no such curve, though single readings can be large or run the other way; further: potency means the concentration at half of the fitted maximal effect; the source files actives as falling curves though it sought activators and does not explain the sign; nearly all actives have a fitted effect of over 65% in size; many hits overshoot -100%
# Target sequence (P80244 whole entry, looked up): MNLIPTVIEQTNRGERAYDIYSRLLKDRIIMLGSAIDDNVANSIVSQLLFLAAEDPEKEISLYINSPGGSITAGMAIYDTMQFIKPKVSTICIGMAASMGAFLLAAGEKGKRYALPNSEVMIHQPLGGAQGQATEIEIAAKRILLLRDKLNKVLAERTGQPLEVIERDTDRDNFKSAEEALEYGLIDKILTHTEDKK
#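 Purified B. subtilis ClpP, 10 microg/mL final in Tris/HCl pH8 with KCl, BSA, glycerol and Tween-20, cleaved an Abz/nitrotyrosine-quenched decapeptide. Fluorescence (ex 320, em 430) was read at 0 and 20 min at room temperature. Delta was normalized to 5.8 microM ADEP and DMSO/no-enzyme controls.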
# TRPML1 inh – inhibitors of human TRPML1 channel. 390,000 compounds, 0.02% hits. Q9GZU1. TRPML1-inducible cells, Ca2+ dye fluorescence, FDSS; hits give low values; inhibition of EC80 agonist-evoked calcium signal. activity change, negative = inhibition, % (test concentration not listed); in the data active means activity change below about -50%; inconclusive means about -30% to -50%; inactive means above about -30%;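 further: stimulus is agonist 54-4 at its EC80 concentration; on the % scale 0 is the no-effect control and ±100 the full control effect; compound concentration not given in the record; the text of the record puts the active cut at -80%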
# Target sequence (Q9GZU1 whole entry, looked up): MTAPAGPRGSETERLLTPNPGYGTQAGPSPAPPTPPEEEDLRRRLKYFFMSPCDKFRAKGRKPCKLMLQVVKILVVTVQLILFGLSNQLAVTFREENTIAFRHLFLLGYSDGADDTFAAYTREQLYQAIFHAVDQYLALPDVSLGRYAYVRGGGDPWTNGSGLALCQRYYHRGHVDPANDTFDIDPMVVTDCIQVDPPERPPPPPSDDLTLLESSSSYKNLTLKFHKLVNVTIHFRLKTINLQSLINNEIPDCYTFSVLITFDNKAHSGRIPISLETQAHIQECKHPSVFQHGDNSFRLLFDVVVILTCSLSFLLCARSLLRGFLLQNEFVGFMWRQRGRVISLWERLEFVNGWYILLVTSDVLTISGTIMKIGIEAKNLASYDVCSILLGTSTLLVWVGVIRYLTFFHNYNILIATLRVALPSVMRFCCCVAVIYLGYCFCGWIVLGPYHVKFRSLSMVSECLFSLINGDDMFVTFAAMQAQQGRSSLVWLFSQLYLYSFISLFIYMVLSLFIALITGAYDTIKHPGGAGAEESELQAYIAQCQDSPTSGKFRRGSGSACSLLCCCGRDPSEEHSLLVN
#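 TRPML1-DL cells, Tet-induced overnight (~16 h, 37 °C) at 1,500 cells/well, were loaded with Ca8 no-wash dye plus quencher for 45-90 min at room temperature. Compounds were pinned during FDSS kinetic reading; agonist 54-4 at EC80 (4 uM final) then added.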
# gsp agonist – gsp mutant agonism; Potency, µM (top dose mostly 76.9 µM), without a hit: at the highest dose activation (cAMP increase), most hits filed as activators; gsp mutant cells, cAMP HTRF, 30 min; control for the full effect not named in the record; 340,000 compounds, 0.13% hits; AID 624287; active = well fitted activation curve with a large enough effect; inconclusive = small, poorly fitted or top-dose-only effect, or another doubt; inactive = no such curve, though single readings can be large or run the other way; cell line not stated here;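 further: phosphodiesterase inhibitor Ro 20-1724 added with compounds to block cAMP breakdown; potency means the concentration at half of the fitted maximal effect; nearly all actives have a fitted effect of over 60% in size; about a fifth of the inactives were tested at one dose only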
#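 Cells in DMEM/10% FBS with G418 were pretreated with compounds in DMSO plus […] (300 uM stock) for 30 min at 37C. cAMP was measured by HTRF (cAMP-d2 plus anti-cAMP antibody-K) after 30 min at room temperature.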
# Sfp inh – blocks B. subtilis Sfp PPTase activity | Q9F4F7 | Biochemical Sfp PPTase activity, qHTS | Potency, µM, for inactives: max response, negative = inhibition, hits mostly inhibitors | 310,000 compounds, 3.5% hits | AID 1490; active means well fitted inhibition curve with a large enough effect; inconclusive means small, poorly fitted or top-dose-only effect, or another doubt; inactive means no such curve, though single readings can be large or run the other way;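 further: the enzyme is Sfp with the accession as filed and its product quenches rhodamine fluorescence; potency means the concentration at half of the fitted maximal effect; 0% = enzyme reaction without inhibitor and -100% = no enzyme wells; top concentration of the series not given in the record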
#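 Fluorescence-quenching assay: 15 nM Sfp-PPTase preincubated 15 min at room temperature with compound, then 5 uM rhodamine-CoA and 12.5 uM BHQ-2-labelled YbbR peptide added. Fluorescence (ex 525/em 598 nm) read at start and after 30 min; difference gives rate.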
# TRPV1 PAM – enhances activation of the human vanilloid receptor TRPV1 | potentiation, % at 8.33 µM | TRPV1-expressing cells, Fluo-8 calcium influx, capsaicin EC20 potentiation; host cell line not named in the record; control for the full effect not named in the record | Q8NER1 | 320,000 compounds, 0.02% hits; active means potentiation above 80%; inconclusive means 30% to 80%; inactive means below 30%; further: 0% is about no effect
#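 Cells expressing TRPV1 were dye-loaded with Fluo-8 and read kinetically: 10 s baseline, 3 min after compound (agonist portion), then 2 min after EC20 capsaicin (allosteric enhancer portion). Calcium-bound dye fluorescence at 480/520 nm.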
# gsp antag – antagonists of gsp mutant (McCune-Albright syndrome); gsp-mutant cells, cAMP HTRF, 30 min; control for the full effect not named in the record; Potency, µM (titrated, usually from 76.9 µM), inactives show at the top dose activity change, negative = inhibition, most hits filed as inhibitors; 340,000 compounds, 0.4% hits; active = falling curve of any shape with a large fitted effect; inconclusive = falling curve, mostly with a smaller effect; inactive = flat or rising curve; cell line not stated here;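 further: intracellular cAMP measured with PDE inhibitor Ro 20-1724 present during compound exposure; potency means the concentration at half of the fitted maximal effect; on the % scale 0 is the no-effect control and ±100 the full control effect; nearly all actives have a fitted effect of over 65% in size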
#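 Measurement of cellular cAMP by homogeneous time-resolved fluorescence following a 30 min compound exposure at 37C. The PDE inhibitor […] was present throughout; the assay buffer was DPBS with 0.05% BSA and 0.005% Tween 20.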
# Menin MLL FP FL – inhibitors of human menin-MLL interaction, wild-type MLL peptide; Fluorescence polarization, fluorescein-MLL peptide displacement from menin; FP activity change, % at 61.4 µM; 290,000 tested, under 10 active; inconclusive = falling polarisation curve, or a change in total fluorescence; inactive = total fluorescence flat and polarisation flat or rising; no compound was filed as active; the % refers to the polarisation; negative = inhibition;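 further: % of control where 0% means no effect; inhibitors lower the polarisation; unlabelled MLL peptide was the positive control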
# An asterisk follows results filed as active; ? = inconclusive; · = no result given; [ ] = another dose, or the depositor's remark.
molecule	ClpP mod	TRPML1 inh	gsp agonist	Sfp inh	TRPV1 PAM	gsp antag	Menin MLL FP FL
O=S(=O)(NCC1(N2CCOCC2)CCCCC1)c1ccc(F)c(F)c1F	-0.4%	-6	10%	·	15	5%	·
CC(C)(C)OC(=O)CNC(=O)c1[nH]cnc1C(=O)NC1CCN(C(=O)OC(C)(C)C)CC1	1.0%	6	-27%	6%	?	-4%	-12
C=CCOC(=O)C1=C(C)NC(C)=C(C(=O)OCC=C)C1c1ccc(O)cc1	22µM*	28	?	8%	-7	-30%	1.5
O=S(=O)(c1ccc(Cl)cc1)c1ccccn1	-2.3%	-9	-7%	-11%	-6	0%	2.7
CS(=O)(=O)c1ccc(Cl)c(NC(=O)CSc2nnc(C3CC3)n2C2CC2)c1	1.8%	-5	?	·	-9	1%	·
COc1cc(S(=O)(=O)N2CCN(C(=O)c3ccccc3F)CC2)c(OC)cc1NC(C)=O	-1.5%	3	9%	-12%	-1	3%	-3.0
COc1ccccc1N1CCN(Cc2ccc(OC)c3ccccc23)CC1	-1.7%	-7	-15%	-5%	5	-6%	-1.3
Cc1ccc2[nH]c(O)c(N=O)c2c1	-2.2%	0	-12%	8%	-5	-22%	0.8
COc1ccccc1NC(=O)Cn1c2ccccc2c2nc3n(c(=O)c21)CCS3	3.2µM*	-25	12%[15.4 µM]	-47%	-26	-14%	0.0
O=C(CSc1n[nH]c(-c2ccco2)n1)N1c2ccccc2Sc2ccccc21	-0.7%	-16	16%	?	-3	7%	20

# Other entries.
molecule	ClpP mod	TRPML1 inh	gsp agonist	Sfp inh	TRPV1 PAM	gsp antag	Menin MLL FP FL
CN(C(=O)COC(=O)C1CCN(S(=O)(=O)c2c(Cl)cccc2Cl)CC1)C1CCCCC1	·	1	0%[15.4 µM]	·	13	-5%	·
COc1cc(Cl)c(NS(=O)(=O)c2ccc(-c3ccc(=O)[nH]n3)o2)c(OC)c1	-1.6%	-3	23%	-4%	?	-28%	·
CCN(CC)S(=O)(=O)c1ccc2c(c1)N(CC(=O)NCC1CCCO1)C(=O)CO2 (stereo not given)	-2.9%	-8	?	16%	8	7%	·
CC(=O)c1ccc(NC(=O)C2CCCN(C(=O)c3ccc(Cl)cc3)C2)cc1 (stereo not given)	·	-20	-29%[15.4 µM]	10%	-9	-9%	-5.6
Cc1cccc2cc(CN(C(=O)c3cnccn3)C3CCCCC3)c(Cl)nc12	-4.0%	26	-62%[inhibitor]	-12%	-15	-14%	-1.0
COc1ccc(CC(=O)Nc2ccc(S(=O)(=O)Nc3nccs3)cc2)cc1	·	15	27%[15.4 µM]	-1%	11	2%	1.6
CCn1cc(/C=C(\NC(=O)c2ccccc2F)C(=O)NCCN2CCOCC2)c2ccccc21	-1.9%	-22	21%	6%	18	-9%	-1.4
O=C(Nc1ccc2c(c1)OCCO2)c1ccc(Br)cc1	·	22	21%	12%	-7	-15%	-0.1
CCc1ccc(C(O)(CC(C)C)C(CN2CCOCC2)c2ccccc2)cc1 (stereo not given)	-0.7%	34	?	-6%	-9	-15%	1.9
O=C1N/C(=N\N=C\c2ccccn2)SC1Cc1cccc(SC(F)F)c1 (stereo not given)	-0.5%	-8	0%	6%	5	10%	-0.9

# 3 entries drawn at random from the list so far:
molecule	ClpP mod	TRPML1 inh	gsp agonist	Sfp inh	TRPV1 PAM	gsp antag	Menin MLL FP FL
CC(=O)c1ccc(NC(=O)C2CCCN(C(=O)c3ccc(Cl)cc3)C2)cc1 (stereo not given)	·	-20	-29%[15.4 µM]	10%	-9	-9%	-5.6
COc1ccc(CC(=O)Nc2ccc(S(=O)(=O)Nc3nccs3)cc2)cc1	·	15	27%[15.4 µM]	-1%	11	2%	1.6
O=C1N/C(=N\N=C\c2ccccn2)SC1Cc1cccc(SC(F)F)c1 (stereo not given)	-0.5%	-8	0%	6%	5	10%	-0.9

# Remaining list, next part
canonical_smiles	ClpP mod	TRPML1 inh	gsp agonist	Sfp inh	TRPV1 PAM	gsp antag	Menin MLL FP FL
COc1ccc(/C=C2/C(=O)N=C3SCCN32)cc1	-0.2%	-16	-5%	17%	6	-15%	-1.4
Cc1ccc2nc(SCC(=O)Nc3ccc(C)c([N+](=O)[O-])c3)[nH]c2c1	-7.7%	-16	18%	1%	-15	3%	3.3
COc1ccc(-c2ccc3oc(-c4ccc(OC)cc4)c(-c4cc(OC)c(OC)c(OC)c4)c3c2)cc1	-19%	-2	-35%	·	·	8%	·
Cc1cc(C(=O)N2CCCC(N3CCN(c4cccc(Cl)c4)CC3)C2)no1 (stereo not given)	-0.5%	-4	3%	16%	-16	-13%	·
COc1ccc(S(=O)(=O)Nc2ccc(NC(C)=O)cc2)cc1[N+](=O)[O-]	·	-12	-2%[15.4 µM]	18%	19	·	-6.9
Cc1nonc1OCCn1c([N+](=O)[O-])cnc1C	-0.9%	5	27%	8%	3	-4%	-0.1
Cc1cc(C)c(S(=O)(=O)N2CCN(c3nc4c(c(=O)n(C)c(=O)n4C)n3C)CC2)c(C)c1	·	·	·	22%	13	·	0.9
CC(C)N1C(=O)CC(Nc2ccc(N3CCOCC3)cc2)C1=O (stereo not given)	-1.0%	-9	-28%	6%	-17	-5%	0.4
O=C(Nc1ccccc1)/C(=C/c1ccc([N+](=O)[O-])cc1)NC(=O)c1ccco1	·	3	24%	-3%	6	4%	-5.2
O=C(CN1CCOCC1)N/N=C/c1c(O)ccc2ccccc12	0.0%	13	0%[15.4 µM]	8%	-10	0%	12
COc1ccccc1CNC(=O)COc1cccc(-n2cnnn2)c1	0.5%	2	-18%	·	-2	-1%	·
CCOC(=O)c1c(C)[nH]c(C)c1C(=O)CSc1nnc(-c2ccncc2)n1Cc1ccccc1	0.8%	3	-1%	3%	-3	5%	3.1

# (cont.)
canonical_smiles	ClpP mod	TRPML1 inh	gsp agonist	Sfp inh	TRPV1 PAM	gsp antag	Menin MLL FP FL
Cc1ccc(C)c(N2CCN(S(=O)(=O)c3ccc4c(c3)CCN4C(=O)CCC(=O)O)CC2)c1	-5.5%	-4	-23%	-1%	8	-22%	7.7
Cc1nc(SCc2ccc(C(=O)O)cc2)c2c(C)c(C)sc2n1	·	8	-2%[15.4 µM]	5%	4	?	13
Cc1nc(CS(=O)(=O)c2ccc(Cl)cc2)cc(N2CCOCC2)n1	0.8%	-3	-37%[inhibitor]	26%	2	1%	-1.2
CCCCOc1ccc(C(=O)N(C)CC(=O)Nc2ccc(C)cc2)cc1	-0.2%	25	-1%	7%	6	-9%	-0.6
CCN1CCN(C(c2cccs2)C(C)NC(=O)c2cccc(OC)c2OC)CC1 (stereo not given)	-1.6%	2	38%	0%	-8	9%	-0.5
O=C(Oc1ccc(-c2ccccc2)cc1)N1CCCCC1	-1.5%	12	?	3%	-8	-2%	2.9
Cc1cc(OCCN2CCOCC2)ccc1[N+](=O)[O-]	-0.5%	10	-10%	?	-5	2%	0.4
N/C(COc1ccc(C(=O)O)cc1)=N\O	-1.0%	4	14%	1%	-1	-15%	-0.4
COc1ccc(CN2CCN(CCc3ccccc3)C(CCO)C2)cc1Cn1cncn1 (stereo not given)	·	11	15%	17%	-5	-1%	3.2
CCN(Cc1nc2ccccc2c(=O)[nH]1)Cc1cc(=O)oc2cc(C)c(C)cc12	-8.6%	6	-26%	·	·	20%	·
CSCCC(NC(=O)COc1ccccc1)C(=O)OCCOc1ccc(F)cc1 (stereo not given)	-1.9%	36	-8%	·	-11	-12%	·
Cc1noc(C)c1S(=O)(=O)N(C)CC(=O)NCc1ccccc1	-1.4%	5	-6%	0%	-7	2%	1.6

# Given as labelled records: two of the compounds above.
Compound: Cc1ccc(C)c(N2CCN(S(=O)(=O)c3ccc4c(c3)CCN4C(=O)CCC(=O)O)CC2)c1
- ClpP mod = -5.5%
- TRPML1 inh = -4
- gsp agonist = -23%
- Sfp inh = -1%
- TRPV1 PAM = 8
- gsp antag = -22%
- Menin MLL FP FL = 7.7
Compound: Cc1cc(OCCN2CCOCC2)ccc1[N+](=O)[O-]
- ClpP mod = -0.5%
- TRPML1 inh = 10
- gsp agonist = -10%
- Sfp inh = ?
- TRPV1 PAM = -5
- gsp antag = 2%
- Menin MLL FP FL = 0.4

# (listing goes on)
canonical_smiles	ClpP mod	TRPML1 inh	gsp agonist	Sfp inh	TRPV1 PAM	gsp antag	Menin MLL FP FL
Cc1cccc(Cc2c(C)[nH]c(=O)c(C#N)c2C)c1	-9.6%	-9	1%	10%	-7	0%	-5.2
CC(C(=O)N1CCc2ccccc21)N(C)CC(=O)Nc1ccc(F)cc1 (stereo not given)	1.2%	-15	4%	·	-19	5%	·
O=C(c1ccc([N+](=O)[O-])cc1)N1CCN(C(=O)c2cccnc2)CC1	0.5%	50	-6%[15.4 µM]	-2%	7	8%	-7.7
O=C(Cn1ncn2c(cc3sccc32)c1=O)NC1CCCC1	-3.9%	15	9%	30%	-10	8%	·
CCOC(=O)c1c(N)sc(C(O)(C(F)(F)F)C(F)(F)F)c1-c1ccc(Cl)cc1	-0.9%	19	-9%	23%	-4	3%	3.7
COCC(C)N1CCC(Oc2ccc(C(=O)N3CCCC3)cc2)CC1 (stereo not given)	-2.0%	-7	-11%	6%	-3	-1%	-0.7
Cc1ccc(NCN2C(=O)c3ccccc3C2=O)cc1Cl	2.1%	11	-19%	·	·	·	·
CCn1c(C(=O)O)c(CC(=O)Nc2cccc(C(F)(F)F)c2)c2ccccc21	-3.9%	-3	?	11%	10	-1%	1.6
